PKD1 kinase inh = inhibitors of human PKD1 kinase, biochemical, fluorescence polarization; Serine/threonine-protein kinase D1 (Homo sapiens), Q15139; AID 797, 2007; hit rate 0.056% among 200,000; PKD1 kinase fluorescence polarization assay; inhibition, %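 (about 10 µM by stock and volumes)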;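 active means inhibition of 50% or more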;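 further: controls were vehicle for no effect and a reference inhibitor for full effect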
RGS16-Gao HTS = modulators of RGS16 binding to Galphao, primary screen, biochemical, human proteins, multiplexed bead flow cytometry; bead-based flow cytometry RGS16-Galphao binding, fluorescence; actives lie on both sides; binding response (% of control), % at 10 µM; hit rate 0.38% among 220,000;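 active means below 25% or above 175%, edge rows of some plates excepted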;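 further: Galphao activated by GDP with aluminum fluoride before binding; 100% = wells without compound and 0% = beads without RGS; some results beyond the cut were filed as inactive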
Target sequence (O15492 whole entry, looked up): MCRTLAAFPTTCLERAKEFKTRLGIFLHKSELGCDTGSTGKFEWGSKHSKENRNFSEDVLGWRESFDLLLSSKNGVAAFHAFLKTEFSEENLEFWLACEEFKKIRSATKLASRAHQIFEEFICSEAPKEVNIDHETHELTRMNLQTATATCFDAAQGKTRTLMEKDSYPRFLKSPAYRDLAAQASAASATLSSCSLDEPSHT
Target sequence (P09471 whole entry, looked up): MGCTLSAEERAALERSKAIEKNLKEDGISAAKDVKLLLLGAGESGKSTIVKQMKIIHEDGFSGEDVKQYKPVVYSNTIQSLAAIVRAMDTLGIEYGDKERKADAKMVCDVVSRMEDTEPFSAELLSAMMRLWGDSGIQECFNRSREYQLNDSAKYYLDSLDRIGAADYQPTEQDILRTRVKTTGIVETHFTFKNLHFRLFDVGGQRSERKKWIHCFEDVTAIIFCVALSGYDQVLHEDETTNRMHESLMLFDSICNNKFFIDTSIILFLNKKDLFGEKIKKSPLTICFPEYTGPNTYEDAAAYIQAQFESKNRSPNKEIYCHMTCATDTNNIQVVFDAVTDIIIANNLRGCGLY
Insulin prom inh = inhibitors of insulin promoter-driven GFP, primary screen, imaging, TRM-6 cells (human fetal islet line), eGFP reporter, cell count; reporter expression induced with tamoxifen; inhibition, % at 2 µM; hit rate 0.9% among 130,000;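 active means inhibition above the mean plus 3 SD, with well images judged a real hit on visual review, cut at about 60% in these data, passing the limit was not always enough; inconclusive means inhibition over the cutoff but images rejected on review; inactive means inhibition not above the cutoff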
GALR2 ag = GALR2 receptor agonists, primary screen, cell-based; hit rate 0.48% among 140,000; AID 803, 2007; activation, %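 (tested at 5 µM)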; GALR2-expressing cells, agonist activation read-out;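 active means above mean plus 3 SD of all compounds, about 5% in these data, not always enough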;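 further: 0% = vehicle buffer wells and 100% = reference agonist at full effect; tested in CHO reporter cells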
Target sequence (O43603 whole entry, looked up): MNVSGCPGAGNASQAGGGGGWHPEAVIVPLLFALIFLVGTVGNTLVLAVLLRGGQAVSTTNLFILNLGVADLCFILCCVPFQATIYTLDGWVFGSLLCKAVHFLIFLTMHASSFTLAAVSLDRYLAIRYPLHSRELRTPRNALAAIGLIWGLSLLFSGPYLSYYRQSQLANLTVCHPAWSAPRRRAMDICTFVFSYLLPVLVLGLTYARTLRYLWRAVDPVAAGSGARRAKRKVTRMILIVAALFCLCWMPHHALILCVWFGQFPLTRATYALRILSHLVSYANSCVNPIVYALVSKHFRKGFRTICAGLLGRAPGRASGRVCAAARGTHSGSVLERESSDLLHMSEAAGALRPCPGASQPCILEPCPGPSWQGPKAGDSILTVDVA
HSV augment = enhancers of HSV replication in host cells, fold increase, host cell viability | HSV replication augmentation in cells | maximum fold increase | hit rate 0.005% among 220,000;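 active means peak rise of 1.5-fold or more in the series; inconclusive means self-fluorescent or not available for retest; tested in PC3 cells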;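 further: first round at 10 µM; read as green reporter fluorescence; hits show the peak of a series up to 25 µM; 1 = signal of infected wells without compound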
Insulin prom inh cell count = also measured in Insulin prom inh; calls as there; normalized cell count, %; measured here: cell count, toxicity; reference of the scale not given here;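 cells exposed to compound for 48 h; stained nuclei by imaging scaled within each plate; lower means fewer cells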
HSV augment primary fold = also measured in HSV augment; calls as there; fold increase; compound at 10 µM; measured here: primary screen fold increase 10 uM; tested in PC3 cells;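 GFP signal in the first replicate; 1 = infected wells without compound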
* hit, by the source's call; i = inactive; ? = inconclusive; · = not tested or not shown. Not all compounds are listed. The share of hits here may be higher or lower than overall.

SMILES | PKD1 kinase inh | RGS16-Gao HTS | Insulin prom inh | Insulin prom inh cell count | GALR2 ag | HSV augment | HSV augment primary fold
CCOP(=O)(OCC)C(NC(=O)c1ccccc1)=C(Cl)Cl | 3 | 108 | · | · | -0.5 | i | 1
COc1ccc(NC(=O)N2CCC3(CC2)OCCO3)cc1 | 2 | 100 | -47 | 73 | · | i | 0.97
COc1ccccc1OCCCn1cc(C(C)=O)c2ccccc21 | 2 | 51 | 17 | 86 | · | i | 0.98
CCCCC(=O)N/N=C/c1c(O)n(-c2ccccc2)c(=O)[nH]c1=O | · | 96 | · | · | · | i | 0.95
O=C1NC(=O)N(c2ccc(Cl)cc2)C(=O)/C1=C\c1ccc(Sc2nc3ccccc3[nH]2)o1 | -9 | 81 | -7 | 100 | 0.2 | ? | ·
CN(C)C(=O)Oc1ccc(OCc2nc3ccccc3[nH]2)cc1 | 2 | 99 | · | · | -0.8 | i | 1
Cc1cc(C)n2nc(SC(C)C(=O)N3CCC4(CC3)OCCO4)nc2n1 (centres undefined) | -2 | 99 | · | · | -2.6 | i | 0.71
CN1CCN(Cc2cc(C(C)(C)C)c(O)c(C(C)(C)C)c2)CC1 | -1 | 102 | -26 | 101 | -0.4 | i | 0.79
COc1ccc(CCNCc2ccncc2)cc1OC | -5 | 95 | 19 | 102 | -4.0 | i | 0.85
COc1ccccc1N=Cc1c(O)n(C)c(=O)n(C)c1=O | -10 | 105 | 10 | 103 | -1.3 | · | ·
CCOC(=O)[C@@]12C(=O)C(=O)N[C@]1(c1ccccc1)C1OCCCC12 (some centres undefined) | -8 | 89 | -40 | 111 | -0.4 | i | 1.1
CN1C2CCC1/C(=C/c1ccccn1)C(=O)/C2=C\c1ccccn1 | 6 | 96 | i | 1 | -2.9 | i | 0.53
O=C(O)[C@H]1C[C@@H]1[C@H](NP(=O)(c1ccccc1)c1ccccc1)c1ccccc1 | 7 | 202 | 55 | 112 | -1.8 | i | 0.77
CCOc1ccc(-n2c(O)c(N=Nc3ccc([N+](=O)[O-])cc3)c(=O)[nH]c2=O)cc1 | 3 | 96 | -11 | 93 | · | i | 1.2
O=c1[nH]c(=S)n(-c2ccc(Cl)cc2)c(O)c1/C=N/N1CCOCC1 | · | 100 | · | · | · | i | 0.98
CN1CCN(Cc2nnc3n2-c2ccc(Cl)cc2C(c2ccccc2)=NC3)CC1 | -5 | 100 | -16 | 119 | -0.5 | i | 0.91
CC1CN(C)C(C)(C)CC1(O)c1ccccc1 (centres undefined) | -9 | 32 | · | · | -2.2 | i | 1.2
CCC(C)n1c(O)c(/C=N/NC(=O)c2ccncc2)c(=O)[nH]c1=S (centres undefined) | 8 | 106 | 0 | 113 | 0.1 | i | 1.1
N#Cc1cc2c(nc1SCC(=O)Nc1cc(Cl)ccc1Cl)C1CCN2CC1 | -5 | 137 | -134 | 67 | 11 | i | 0.82
CCOC(=O)c1c(C)n(Cc2ccccc2)c2ccc(O)cc12 | 3 | 109 | · | · | · | i | 1
COC(=O)C(O)(c1cn(C)c2ccccc12)C(F)(F)F (centres undefined) | -3 | 104 | 11 | 103 | -0.5 | i | 0.79
CCOC(=O)Cn1cc(C(=O)c2ccccc2F)c2ccccc21 | -5 | 100 | 46 | 84 | -1.0 | i | 0.95
Cc1cccc2c1=NC(=O)/C(=C/c1c(O)[nH]c(=O)[nH]c1=O)C=2 | -8 | 101 | 0 | 92 | -2.1 | i | 1
CN1CCN(c2ccc(NC(=O)Oc3ccccc3)cc2)CC1 | 1 | 99 | 46 | 115 | -1.8 | i | 1.1

Reprinted from the part before: five entries, then new ones.
SMILES | PKD1 kinase inh | RGS16-Gao HTS | Insulin prom inh | Insulin prom inh cell count | GALR2 ag | HSV augment | HSV augment primary fold
CCOC(=O)c1c(C)n(Cc2ccccc2)c2ccc(O)cc12 | 3 | 109 | · | · | · | i | 1
COC(=O)C(O)(c1cn(C)c2ccccc12)C(F)(F)F (centres undefined) | -3 | 104 | 11 | 103 | -0.5 | i | 0.79
CCOC(=O)Cn1cc(C(=O)c2ccccc2F)c2ccccc21 | -5 | 100 | 46 | 84 | -1.0 | i | 0.95
Cc1cccc2c1=NC(=O)/C(=C/c1c(O)[nH]c(=O)[nH]c1=O)C=2 | -8 | 101 | 0 | 92 | -2.1 | i | 1
CN1CCN(c2ccc(NC(=O)Oc3ccccc3)cc2)CC1 | 1 | 99 | 46 | 115 | -1.8 | i | 1.1
O=C(NC[P+](=O)O)OCc1ccccc1 | -7 | 99 | · | · | -1.4 | i | 0.91
Cn1c(O)c(/C=N/c2ccccn2)c(=O)n(C)c1=O | 0 | 91 | 12 | 106 | -1.5 | i | 0.87
COC(=O)c1ccccc1OP(=O)(c1cccc([N+](=O)[O-])c1)c1cccc([N+](=O)[O-])c1 | · | 87 | · | · | · | i | 1.1
OC1(c2cccnc2)CC2CCC(C1)N2Cc1nnnn1Cc1ccccc1 (centres undefined) | -3 | 106 | 69 | 136 | 0.8 | · | ·
CCOc1ccc(NC(=O)C2C3c4ccccc4C(c4ccccc43)C2C(=O)O)cc1 (centres undefined) | -2 | 84 | 50 | 111 | · | i | 0.94
C=CCn1c(O)c(C(C)=NCCCN(C)C)c(=O)[nH]c1=O | · | 101 | · | · | · | i | 1.1
O=C(COc1ccc(Br)cc1)N1CCN(Cc2ccncc2)CC1 | 4 | 99 | · | · | -2.5 | i | 0.8
CCN(CC)c1ccc([N+](=O)[O-])c2cccnc12 | -2 | 102 | · | · | · | i | 0.96
Cc1ccc(OP(=O)(NC(C)c2ccccc2)Oc2ccc(C)cc2)cc1 (centres undefined) | -7 | 109 | · | · | · | i | 1.1
O=C(Cn1cnc2ccccc2c1=O)NCC(=O)N1CCC2(CC1)OCCO2 | -1 | 106 | 40 | 45 | -0.6 | i | 1.1
CN1C2CCC1CC(OC(=O)c1cc(Cl)cc(Cl)c1)C2 (centres undefined) | -8 | 91 | -23 | 54 | -1.7 | i | 0.81
O=c1[nH]c(=S)n(C2CC2)c(O)c1/C=N/Nc1ccccc1 | 7 | 103 | -35 | 112 | -0.4 | i | 1.2

Complete entries as entered above. Order of values: PKD1 kinase inh	RGS16-Gao HTS	Insulin prom inh	Insulin prom inh cell count	GALR2 ag	HSV augment	HSV augment primary fold
`O=c1[nH]c(=S)n(C2CC2)c(O)c1/C=N/Nc1ccccc1` as listed: 7	103	-35	112	-0.4	i	1.2
`COc1ccc(CCNCc2ccncc2)cc1OC` as listed: -5	95	19	102	-4.0	i	0.85

Other structures:
SMILES | PKD1 kinase inh | RGS16-Gao HTS | Insulin prom inh | Insulin prom inh cell count | GALR2 ag | HSV augment | HSV augment primary fold
CCCCCCn1c(=O)c(C(=O)Nc2nnc(C)s2)c(O)c2ccccc21 | 1 | 109 | 30 | 108 | · | i | 0.86
C[C@H]1CCC/C=C/C2C[C@H](O)CC2[C@H](O)/C=C/C(=O)O1 (some centres undefined) | 3 | 106 | -305 | 43 | -0.8 | i | 0.43
COc1ccccc1C(=O)C1CCCN(Cc2cnc(C)s2)C1 (centres undefined) | 11 | 108 | · | · | · | i | 1
CNCC(O)c1cccc(OC(=O)c2ccccc2C)c1 (centres undefined) | -4 | 91 | 26 | 81 | -1.3 | · | ·
O=c1cc(C2CCNCC2)[nH][nH]1 | -3 | 103 | · | · | -1.3 | i | 1
CCC12CN3CCN(CC(C3)/C1=N/NC(N)=O)C2 | 1 | 101 | 0 | 100 | · | i | 0.98
CCN1CCN(c2ccc(NC(=O)C(C)C)cc2Cl)CC1 | 1 | 105 | -6 | 95 | -2.4 | i | 0.88
O=C(O)CCCc1ccc(N(CCCl)CCCl)cc1 | -15 | 103 | 32 | 102 | 0.1 | i | 1
Cc1ccsc1C(=O)C1CCCN(Cc2cc3ccccc3o2)C1 (centres undefined) | -5 | 102 | · | · | · | i | 1.1
CCOP(=S)(OCC)c1ccc(N(C)C)cc1 | 2 | 329 | 11 | 218 | -0.8 | i | 1.3
Cc1oc2ccc(OC(=O)N(C)C)cc2c1C(=O)OC(C)C | 0 | 110 | 48 | 109 | -2.6 | i | 0.87
CCC(C)/C=C(C)/C=C/C1=CC2=C(Cl)C(=O)C(C)(OC(C)=O)C(=O)C2=CO1 (centres undefined) | 10 | 92 | · | · | · | i | 0.8
Cc1ccc(/C=C2/C(=O)NC(=O)N(CCc3ccc(F)cc3)C2=O)s1 | -9 | 104 | 24 | 127 | -0.4 | i | 1.1
COP(=O)(OC)C(O)C(Cl)(Cl)Cl (centres undefined) | -9 | 103 | -81 | 123 | 0.9 | · | ·
CC(=O)N1N=C2C3CCN(CC3)C2C1c1ccc(Br)cc1 (centres undefined) | · | 103 | · | · | · | i | 0.86
COC(=O)C(O)(c1ccc(NC(=O)c2cccs2)cc1)C(F)(F)F (centres undefined) | · | 102 | · | · | · | i | 0.88
CNc1ccc2oc(C[C@H]3O[C@@]4(CC[C@H]3C)O[C@H]([C@H](C)C(=O)c3ccc[nH]3)[C@H](C)C[C@H]4C)nc2c1C(=O)O | · | 104 | · | · | · | i | 0.51
C/C=C(\C)C(=O)OC1C(C)=C2C(C1OC(=O)CCCCC)C(C)(OC(C)=O)CC(OC(=O)CCC)C1(O)C2OC(=O)C1(C)O (centres undefined) | · | 95 | · | · | · | i | 0.5
CNC(=S)N1CC2CC(C1)c1cccc(=O)n1C2 (centres undefined) | -1 | 103 | · | · | · | i | 0.97
CN1C2c3ccccc3C3C4c5ccccc5C(C31)C(C2[N+](=O)[O-])N4C (centres undefined) | · | 107 | · | · | · | i | 1.1
CN(C)C(=O)O/N=C(\N)COc1ccc(C(C)(C)C)cc1 | · | 108 | · | · | · | i | 0.77
Nc1nnc(P(c2ccccc2)c2ccccc2)s1 | · | 101 | · | · | · | i | 0.96
O=P(c1ccccc1)(c1ccccc1)N1CCCCC1 | -28 | 101 | · | · | -1.9 | i | 0.92
CCOc1ccc(C2SCC(=O)Nc3c2c(=O)[nH]n3C2CCCCCC2)cc1 (centres undefined) | -4 | 102 | · | · | 0.7 | i | 0.96
O=C1CN=C(c2ccc(Br)cc2)c2oc3ccccc3c2N1 | -6 | 109 | 41 | 181 | -0.2 | i | 0.87
Cc1c(C(c2ccccc2Cl)c2c(O)c3ccccc3oc2=O)c(=O)n(-c2ccccc2)n1C (centres undefined) | -11 | 103 | -7 | 114 | 0.3 | i | 1
Nc1c(C(=O)NCCCc2ccccc2)c2nc3ccccc3nc2n1Cc1cccs1 | 5 | 76 | 38 | 131 | 32* | i | 0.96
FC(F)(F)c1cccc(-n2nnnc2C2(N3CCOCC3)CCCCC2)c1 | 0 | 96 | · | · | -0.9 | i | 0.89
Nc1cccc(N=Cc2c(O)n(Cc3ccc(F)cc3)c(=O)[nH]c2=O)c1 | -5 | 97 | 29 | 125 | 0.0 | i | 1.1
S=C1NCCN1 | 2 | 106 | 9 | 109 | -0.2 | i | 0.97
C/C=C1/CC(C)C(C)(O)C(=O)OCC2CCN3CCC(OC1=O)C23 (centres undefined) | 5 | 66 | · | · | · | i | 1
COc1cc(/C=N/NC(=O)CN2CC(c3ccccc3)CC2=O)ccc1OC(=O)N(C)C (centres undefined) | -8 | 102 | -83 | 78 | -1.4 | i | 1
Cc1nn(Cc2ccccc2)c(C)c1C(=O)NCc1ccccc1 | 1 | 108 | 25 | 132 | · | i | 0.93
O=c1[nH]c(=S)n(-c2ccc(Br)cc2)c(O)c1C=Nc1ccc(N2CCOCC2)cc1 | -5 | 110 | 33 | 104 | -0.8 | i | 0.92
COc1ccc(C2=NCC(=O)N(CC(=O)NCc3ccco3)c3sc4c(c32)CCCC4)cc1OC | -12 | 90 | -14 | 171 | -1.9 | i | 0.88
CC1CCCN(C(=O)CCl)C1 (centres undefined) | -12 | 117 | -3 | 100 | -1.5 | i | 1.1
CC1C(c2cccs2)=[N+]([O-])C(C)(C(=O)c2ccc(Cl)cc2)N1O (centres undefined) | -4 | · | 8 | 68 | -1.7 | · | ·
CCOc1ccc(-n2c(O)c(C=Nc3ccc(N4CCOCC4)cc3)c(=O)[nH]c2=O)cc1 | -16 | 102 | -40 | 154 | -0.8 | i | 0.91
Cc1ccc(OCC(=O)N2CCN(Cc3ccc4c(c3)OCO4)CC2)cc1 | 1 | 102 | · | · | · | i | 1.1
CCN1CC=C(c2c[nH]c3ccccc23)CC1 | -1 | 101 | -271 | 37 | -2.0 | i | 1.1

Screens: PubChem BioAssay, several laboratories
